gsp agonist – gsp mutant agonism; 340,000 tested, 0.13% active; gsp mutant cells, cAMP HTRF, 30 min; control for the full effect not named in the record; Potency, µM (highest dose often 76.9 µM), for inactives: at the highest dose activation (cAMP increase), usual class: activators; active = well fitted activation curve with a large enough effect; inconclusive = small, poorly fitted or top-dose-only effect, or another doubt; inactive = no such curve, though single readings can be large or run the other way; cell line not stated here;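 further: phosphodiesterase inhibitor Ro 20-1724 added with compounds to block cAMP breakdown; potency means the concentration at half of the fitted maximal effect; nearly all actives have a fitted effect of over 60% in size; about a fifth of the inactives were tested at one dose only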
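Cells stably selected in G418 were plated at 2000/well, grown 16-24 hr, then given compounds in DMSO with the PDE inhibitor […] (300 uM solution added) for 30 min at 37C; cAMP was read by HTRF.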
ClpP mod – qHTS Assay for Activators of ClpP. Potency, µM (top dose mostly 57.5 µM), without a hit: at the top dose activity change, negative = active. 340,000 tested, 1.9% active. purified B. subtilis ClpP, FRET peptide cleavage, 20 min; active = well fitted falling curve with a large enough effect; inconclusive = small, poorly fitted or top-dose-only effect; inactive = no such curve, though single readings can be large or run the other way; further: potency means the concentration at half of the fitted maximal effect; the source files actives as falling curves though it sought activators and does not explain the sign; nearly all actives have a fitted effect of over 65% in size; many hits overshoot -100%
Target sequence (P80244 whole entry, looked up): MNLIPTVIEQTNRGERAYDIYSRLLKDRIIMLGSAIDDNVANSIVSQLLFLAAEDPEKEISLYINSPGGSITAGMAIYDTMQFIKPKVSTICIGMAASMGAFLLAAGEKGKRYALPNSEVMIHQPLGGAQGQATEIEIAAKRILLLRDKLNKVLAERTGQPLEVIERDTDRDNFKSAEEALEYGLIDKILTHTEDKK
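ClpP 10 microg/mL final, pH 8 Tris/KCl buffer with BSA, glycerol, Tween-20; compound pinned in; FRET-FV substrate; RT 20 min; Ex320/Em430; ΔFRET vs ADEP 5.8 microM, DMSO, no enzyme.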
Menin-MLL FL inh – inhibitors of human menin-MLL interaction, wild-type MLL peptide | Fluorescence polarization, fluorescein-MLL peptide displacement from menin | FP activity change, % at 61.4 µM | 290,000 tested, under 10 active | AID 1766; inconclusive = falling polarisation curve, or a change in total fluorescence; inactive = total fluorescence flat and polarisation flat or rising; no compound was filed as active; the % refers to the polarisation; negative = inhibition;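 further: % of control where 0% means no effect; inhibitors lower the polarisation; unlabelled MLL peptide was the positive control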
Sfp PPTase inh – blocks B. subtilis Sfp PPTase activity; Q9F4F7; Biochemical Sfp PPTase activity, qHTS; Potency, µM, for the others: max response, negative = inhibition, most hits filed as inhibitors; 310,000 tested, 3.5% active; AID 1490; active means well fitted inhibition curve with a large enough effect; inconclusive means small, poorly fitted or top-dose-only effect, or another doubt; inactive means no such curve, though single readings can be large or run the other way;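 further: the enzyme is Sfp with the accession as filed and its product quenches rhodamine fluorescence; potency means the concentration at half of the fitted maximal effect; 0% = enzyme reaction without inhibitor and -100% = no enzyme wells; top concentration of the series not given in the record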
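Reaction rates are the 30-min fluorescence difference (ex 525, em 598 nm) in wells containing 15 nM Sfp, 5 uM rhodamine-CoA and 12.5 uM BHQ-2-YbbR at pH 7.6 with 10 mM MgCl2.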
gsp antag – antagonizes gsp, the McCune-Albright syndrome mutation; gsp-mutant cells, cAMP HTRF, 30 min; control for the full effect not named in the record; Potency, µM (series often up to 76.9 µM), without a hit: top-dose activity change, negative = inhibition, usual class: inhibitors; 340,000 tested, 0.4% active; AID 624288; active = falling curve of any shape with a large fitted effect; inconclusive = falling curve, mostly with a smaller effect; inactive = flat or rising curve; cell line not stated here;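 further: intracellular cAMP measured with PDE inhibitor Ro 20-1724 present during compound exposure; potency means the concentration at half of the fitted maximal effect; on the % scale 0 is the no-effect control and ±100 the full control effect; nearly all actives have a fitted effect of over 65% in size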
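HTRF cAMP read-out (cAMP-d2 plus anti-cAMP antibody-K in lysis buffer, 30 min RT). Before lysis, cells are exposed to compounds with […] for 30 min at 37C in DPBS containing Ca/Mg, BSA and Tween 20.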
D2 ag – activates the human D2 dopamine receptor. P14416. DiscoveRx PathHunter D2 beta-arrestin, luminescence, 90 min; 100% = 57 uM dopamine signal. activation, % (test concentration not listed). 360,000 tested, 0.084% active; in the data active = activation above about 40%; inconclusive = about 15% to 40%; inactive = below about 15%; further: compound concentration not given in the record; the text of the record calls up to 30% inactive
Target sequence (P14416 whole entry, looked up): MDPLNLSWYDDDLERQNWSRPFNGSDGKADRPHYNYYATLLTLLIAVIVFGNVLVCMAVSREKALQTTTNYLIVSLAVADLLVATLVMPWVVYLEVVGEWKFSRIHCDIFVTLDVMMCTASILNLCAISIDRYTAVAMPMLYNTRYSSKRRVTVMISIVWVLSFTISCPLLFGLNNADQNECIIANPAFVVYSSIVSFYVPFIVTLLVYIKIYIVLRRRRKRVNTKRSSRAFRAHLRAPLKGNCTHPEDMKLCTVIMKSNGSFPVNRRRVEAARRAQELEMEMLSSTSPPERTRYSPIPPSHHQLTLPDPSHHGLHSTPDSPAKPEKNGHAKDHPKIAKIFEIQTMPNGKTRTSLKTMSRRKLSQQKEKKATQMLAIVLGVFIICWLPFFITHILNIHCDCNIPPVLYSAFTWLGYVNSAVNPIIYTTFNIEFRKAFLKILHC
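Agonist mode: compounds alone added to overnight-plated D2 PathHunter cells for 90 min at 37 C, with 57 uM final dopamine (EC100) defining full response. Beta-arrestin recruitment detected by chemiluminescent reagent, read after 1 h at ambient temperature.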
PINK1 expr mod – PINK1 expression modulation. PINK1 immunofluorescence, high-content cytometry, 24 h. Potency, µM (highest dose often 76.6 µM), for the others: at the top dose activation (PINK1 increase), most hits filed as activators. 410,000 tested, 0.2% active; active = well fitted activation curve with a large enough effect; inconclusive = small, poorly fitted or top-dose-only effect; inactive = flat fitted curve, though single readings scatter; cell line not stated here;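 further: potency means the concentration at half of the fitted maximal effect; % of control where 0% means no effect; nearly all actives have a fitted effect of over 65% in size; a mitochondrial uncoupler was the plate control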
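Stable cell line treated 24 h with compounds at 5 concentrations (CCCP controls), then fixed and immunostained for PINK1 plus nuclear and cell stains; PINK1 immunofluorescence quantified by laser-scanning microplate cytometry.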
Numbers without * were called inactive; ? = inconclusive; / = no result given; & = joins results of further samples; [ ] = remark or other dose.

SMILES,gsp agonist,ClpP mod,Menin-MLL FL inh,Sfp PPTase inh,gsp antag,D2 ag,PINK1 expr mod
COCC(=O)N1CCC[C@@]2(CCN(C(c3ccccc3)c3ccccc3)C2)C1,/,/,1.6,15%,/,/,-0.3%
CN(C)C(CNc1ncnc2sccc12)c1ccccc1 (centres undefined),30%,/,-0.7,11%,1%,1.6,2.0%
Oc1sc(C=Nc2ccccc2)c2ccccc12,-2%,0.6%,?,45µM*,?,6.0,-2.7%
COCCN(C(=O)CSc1nnc(-c2ccccc2F)n1N)c1c(N)n(Cc2ccccc2)c(=O)[nH]c1=O,?,-4.3%,/,4%,9%,-0.5,0.3%
CCCC(=O)Nc1cc(S(=O)(=O)N2CCCCC2)ccc1N1CCOCC1,?,-1.3%,/,/,4%,-2.9,3.2%
O=CN1CCN(C(=O)COc2ccc(Cl)cc2Br)CC1,-16%,-0.5%,/,21%,2%,-4.1,-0.6%
COCC1CCN(C(=O)c2cc(COc3ccccc3SC)on2)C1 (centres undefined),28%,-0.1%,-6.0,9%,-21%,-6.8,-0.5%
O=C1CCN(Cc2ccccc2)CCN1CCSc1ccccc1,-1%,-0.6%&-0.6%,3.0,13%,3%,1.1,-0.2%
CCc1cccc(C)c1NC(=O)COC(=O)Cc1ccsc1,-4%,-4.2%,-4.8,8%,20%,1.3,-0.6%
COc1ccc(-c2ccc(C(=O)NCC3CCOCC3)c3occc23)c(C)c1,/,4.5%,/,/,/,8.3,-1.2%

Next records
SMILES,gsp agonist,ClpP mod,Menin-MLL FL inh,Sfp PPTase inh,gsp antag,D2 ag,PINK1 expr mod
CN(Cc1cccs1)C(=O)Cn1cnc2ccccc2c1=O,4%[15.4 µM],/,0.5,18%,12%,-1.6,1.1%
COC(=O)Cc1cc(=O)[nH]c(/N=C(\N)Nc2ccccc2)n1,11%,0.9%,2.1,-8%,12%,-0.3,?
O=C(COC(=O)c1ccc2[nH]c3c(c2c1)CCCC3)Nc1ccc(Cl)cc1Cl,-4%[15.4 µM],/,1.1,15%,-5%,-1.8,1.1%
CC(C)N1CCc2c(sc(NC(=O)CCS(=O)(=O)c3ccccc3)c2C#N)C1,-16%,-4.8%,2.2,-10%,4%,-3.7,-2.8%
CCOc1ccc(NC(=O)CN(C)C(=O)CC2OC(=O)c3ccccc32)cc1OCC (centres undefined),9%,0.0%,/,/,5%,-4.4,0.4%
CC(C)CCNC(=O)COc1ccc2c3c(c(=O)oc2c1)CCC3,1%,10µM*,1.4,-4%,7%,-0.3,3.5%[38.3 µM]
CCC(Sc1ccc2nnc(-c3cccnc3)n2n1)C(=O)O (centres undefined),2.5µM*,-21%&-12%,7.0,11%,12%,-30,-0.1%&0.9%
COc1ccc(NS(=O)(=O)c2ccc3c(c2)OCCO3)cc1OC,15%,/,-7.6,11%,-9%,7.9,-1.5%
CCN1CCc2nc(NC(=O)c3ccc(S(=O)(=O)N(C)C)cc3)sc2C1,36%[15.4 µM],-0.3%,?,-7%,-20%,-1.5,1.4%
CCCCC(=O)Nc1cccc(-c2nnc(-c3ccccc3)o2)c1,-3%,-24%,2.0,-6%,?,-0.8,30%[38.3 µM]

Next part.
SMILES,gsp agonist,ClpP mod,Menin-MLL FL inh,Sfp PPTase inh,gsp antag,D2 ag,PINK1 expr mod
CC(=O)Nc1ccc(Br)c2ccccc12,28µM*,/,-1.1,1%,12%,-3.3,-0.9%
Cc1cc2ncn(/N=C/c3ccc4c(c3)OCO4)c2cc1C,1%[15.4 µM],/,5.3,-15%,-66%,-3.4,4.6%
CCc1ccc(OCC(=O)NC(=S)Nc2ccc(S(=O)(=O)NC3CCCCC3)cc2)cc1,-3%,-2.3%,-3.6,33%[activator],-5%,-0.8,2.3%
CC(=O)Oc1ccc(-c2cccc(C(=O)O)c2)cc1,-53%[inhibitor],0.4%,4.5,22%,-7%,0.8,-3.6%[38.3 µM]
CCOC(=O)c1c(NC(=O)c2c(C(=O)O)cccc2[N+](=O)[O-])sc2c1CCCC2,0%[15.4 µM],0.0%,-8.4,18µM*,22%,-4.1,3.7%
CN(C)/C=C(/C(=O)c1ccc(Cl)cc1)n1cncn1,-1%,/,3.4,15%,1%,0.8,-0.9%
COc1ccc(CNc2ncc(-c3ccccc3)n2C)c2ccccc12,?,-17%,-0.8,-24%,-1%,-5.4,4.8%
O=S1(=O)CCN(C2CCCCCCC2)CC1,-6%,0.5%,/,/,/,-0.2,0.1%
CC(=O)Nc1ccc(NC(=O)COc2ccc(S(=O)(=O)N3CCCC3)cc2)cc1,-3%[15.4 µM],/,0.0,17%,-5%,1.1,1.3%
COC(=O)c1ccc(C(=O)OC)c(NC(=O)CSc2n[nH]c(N)n2)c1,4%,/,/,/,9%,4.5,4.6%

The results go on.
SMILES,gsp agonist,ClpP mod,Menin-MLL FL inh,Sfp PPTase inh,gsp antag,D2 ag,PINK1 expr mod
CC(=O)c1ccc(NC(=O)Nc2cccc3ccccc23)cc1,7%,-0.9%,/,7%,-20%,3.3,-0.8%
Cc1cccc(COC(=O)CCCNC(=O)c2ccc(Cl)cc2)c1,1%,-1.8%,/,/,-2%,0.9,2.2%
C[N+]1(C2CCC3CCCC2C3O)CCCC1 (centres undefined),-19%[15.4 µM],1.1%,6.5,7%,-13%,4.0,1.2%
O=C(CSc1nnc(-c2ccncc2)n1C1CCCCC1)Nc1cccc(O)c1,-2%,-0.8%,0.1,30%[activator],2%,4.6,1.5%
O=C(COC(=O)C1Cc2ccccc2CN1C(=O)c1ccccc1)Nc1ccc(SC(F)F)cc1 (centres undefined),14%,-4.4%,0.2,15%,-10%,2.3,8.4%
Cc1noc(C)c1C(=O)N(CC(=O)Nc1ccc(Cl)c(C(F)(F)F)c1)Cc1ccco1,-2%,2.0%,/,/,9%,-0.4,2.8%
O=C(COC(=O)C1CCN(S(=O)(=O)c2cccs2)CC1)Nc1ccc(F)c(F)c1F,-1%,0.7%,/,/,-3%,0.9,5.9%
COc1ccc(/C=C2/S/C(=N/N=C3\CC4CCC3(C)C4(C)C)NC2=O)cc1 (centres undefined),-11%,2.8%,-4.5,15%,12%,3.6,11%
Cc1ccc2c(C)c(C(=O)N(C)C(C)c3ccncn3)oc2c1C (centres undefined),-21%,-1.5%,/,22%,5%,0.5,0.3%
CC1CCCN(C(=O)COC(=O)C2CCN(S(=O)(=O)c3ccc(Cl)c(C(F)(F)F)c3)CC2)C1 (centres undefined),26%,-2.4%,/,/,2%,0.5,13%

Next section
SMILES,gsp agonist,ClpP mod,Menin-MLL FL inh,Sfp PPTase inh,gsp antag,D2 ag,PINK1 expr mod
CCOC(=O)C1CCCN(C(=S)Nc2ccc(C)cc2C)C1 (centres undefined),21%,-4.9%,1.7,4%,-4%,-1.1,-4.9%
O=C(c1cc(S(=O)(=O)N2CCOCC2)ccc1F)N1CCCc2ccccc21,6%,-1.2%,0.2,6%,8%,-2.2,3.1%
COc1cc2c(Nc3ccc(NC(=O)c4ccccc4)cc3)ncnc2cc1OCCCN1CCOCC1,/,-7.5%,0.5,16%,/,/,9.4%
CN(C)CCNC(=O)c1sc2nc(-c3ccccc3)cc(C(F)(F)F)c2c1N,?,/,14,-11%,7%,-7.5,-1.7%
O=C(CS(=O)(=O)c1ccccc1)Nc1ccc(N2CCOCC2)cc1,-21%[15.4 µM],/,1.2,-5%,9%,-5.1,2.7%
COc1ccc(NC(=O)CN2CCC(C(=O)c3ccc(C)cc3)CC2)c(OC)c1,?,/,-6.7,12%,-25%,3.8,-1.2%
Nc1cc(N)nc(SCc2nnnn2-c2ccc(Cl)cc2)n1,-20%,0.8%,-2.7,-27%,7%,-5.7,-1.6%
CCN(CC)CCNC(=O)c1ccc(NC(=O)c2cc(S(=O)(=O)N3CCCCC3)ccc2C)cc1,0%,-0.2%,/,/,10%,-8.0,-2.1%
CCOC(=O)c1cnn(-c2ccccc2)c1NC(=O)c1cccs1,4%,-2.4%,1.2,18%,-3%,-1.6,-2.6%[38.3 µM]
COC(=O)c1c(N2C(=O)CCC2=O)sc2c1CCCC2,?,-14%,-1.6,-2%,6%,-2.1,-2.9%

Further compounds follow:
SMILES,gsp agonist,ClpP mod,Menin-MLL FL inh,Sfp PPTase inh,gsp antag,D2 ag,PINK1 expr mod
CCCCNc1cc(C)nc(N2CCOCC2)n1,-11%,-1.3%,2.4,7%,9%,-1.5,-3.6%
C[C@H](NC(=O)NCc1cccs1)C(=O)O,4%,0.9%,4.6,13%,14%,-0.4,1.4%[38.3 µM]
CC(C)NC(=O)c1ccc2nc([C@@H]3O[C@H](CO)[C@H](O)[C@H](O)[C@H]3O)[nH]c2c1,/,0.4%,/,/,/,-3.2,0.8%
O=C(NCc1ccc(S(=O)(=O)Nc2ccccc2Cl)s1)c1ccccc1,-11%[15.4 µM],/,1.7,0%,-12%,-0.8,-1.8%
Cc1ccc(OCC(=O)N(Cc2nnc(-c3ccccc3Cl)o2)C2CC2)cc1C,?,0.5%,/,/,-15%,0.5,0.6%
C=C[C@](C)(O)CCC1C(=C)CC(O)C2C(C)(C)CCCC12C (some centres undefined),/,/,-3.2,-1%,/,/,-0.2%
O=C(NNC(=O)c1ccc(Cl)nc1)c1ccc(Br)cc1,11%,/,/,/,2%,2.9,0.2%
O=C1c2ccccc2/C(=C\c2ccc(Br)s2)N1c1ccccc1,/,-7.0%,/,/,-4%,3.4,3.7%
O=C(NC1CCN(Cc2ccccc2)CC1)c1c(F)cccc1F,-42%,-1.6%,0.5,17%,12%,-1.2,5.8%
COc1ccc(NC(=O)c2cc(-c3cc(OC)c(OC)c(OC)c3)nc3ccccc23)cc1OC,10%,/,4.6,13%,-13%,4.3,6.6%
CCCC[C@@H]1CN=C(N)N1CCc1cc(C(F)(F)F)cc(C(F)(F)F)c1,-6%,-2.8%,4.7,5%,9%,-4.5,-0.4%
CN1CCC2(CC1)C1CN(C)CC=C1C(C#N)=C(N)C2(C#N)C#N (centres undefined),21%&2%,-24%&-23%,?,-8%&3%,4%&1%,14&5.1,1.4%
CC(=O)NC(c1cccc(F)c1)c1nc(-c2cccc(C(C)C)c2)cs1 (centres undefined),/,-1.0%,/,/,/,-1.2,2.6%

Screening results: PubChem BioAssay, National Center for Advancing Translational Sciences (NCATS)
